GPT2 inhibitor: Primary qHTS assay for inhibitors of Glutamate pyruvate transaminase 2 (GPT2). Alanine aminotransferase 2 (Homo sapiens), Q8TD30. Recombinant GPT2, coupled pyruvate oxidase/HRP Amplex Red fluorescence. Potency, µM (doses to about 57.7 µM), for inactives: at the highest dose activity change, negative = inhibition, actives largely listed as inhibitors. 0.25% of 100,000 active; also: nearly all actives have a fitted effect of over 60% in size; many of its hits are not listed in these tables
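Fluorescence of coupled pyruvate oxidase/HRP/Amplex Red system (50uM Amplex, 30 min, dark) reports pyruvate formed by GPT2. Enzyme reaction: 10ng/uL GPT2, 2mM L-alanine, 250uM a-KG, 30 min room temperature, pH 7.5; 50uM AOA control.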
FLuc inh: Firefly luciferase inhibition profiling of diverse chemical library using quantitative high-throughput screening; Luciferin 4-monooxygenase (Photinus pyralis), P08659; purified P. pyralis luciferase, luminescence, biochemical; Potency, µM (series often up to 115 µM), for the others: at the top dose activity change, negative = inhibition, hits mostly inhibitors; 2.5% of 76,000 active; AID 1347043, 2019; also: nearly all actives have a fitted effect of over 65% in size
Target sequence (P08659 whole entry, looked up): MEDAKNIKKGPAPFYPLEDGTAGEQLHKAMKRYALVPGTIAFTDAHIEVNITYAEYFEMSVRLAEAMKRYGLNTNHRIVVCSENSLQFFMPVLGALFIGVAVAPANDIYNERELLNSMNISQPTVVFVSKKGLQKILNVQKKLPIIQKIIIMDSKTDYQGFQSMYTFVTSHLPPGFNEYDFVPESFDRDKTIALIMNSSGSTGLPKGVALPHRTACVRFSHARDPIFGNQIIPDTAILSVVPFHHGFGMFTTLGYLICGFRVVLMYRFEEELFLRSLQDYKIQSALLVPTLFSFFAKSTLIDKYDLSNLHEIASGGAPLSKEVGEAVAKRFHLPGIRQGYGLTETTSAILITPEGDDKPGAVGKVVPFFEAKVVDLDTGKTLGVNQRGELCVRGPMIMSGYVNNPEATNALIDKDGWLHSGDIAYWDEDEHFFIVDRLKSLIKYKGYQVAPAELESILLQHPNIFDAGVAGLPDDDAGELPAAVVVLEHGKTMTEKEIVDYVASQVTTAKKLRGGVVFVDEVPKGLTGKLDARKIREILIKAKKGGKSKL
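FLuc 10nM, D-luciferin 10uM, ATP 10uM, Mg acetate 10mM, Tris acetate pH 7.5, Tween/BSA; cpd qHTS; enzyme added last; CCD luminescence.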
SNCA viab count: GF-AFC viability counterscreen for inhibitors of alpha-synuclein gene (SNCA) expression | HEK-293-SNCA-luc viability, GF-AFC fluorescence, 24 h | Potency, µM (top dose mostly 57.1 µM), inactives show top-dose activity change, negative = cytotoxicity, most hits filed as cytotoxic | 0.12% of 150,000 active;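 also: 0% = DMSO-treated cells and -100% = medium-only wells without cells; nearly all actives have a fitted effect of over 30% in size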
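Cytotoxicity counterscreen: after 24 h compound treatment of genome-edited SNCA-luciferase HEK-293 cells, live-cell protease substrate GF-AFC read by fluorescence after 30 min; activity scaled between DMSO (0%) and medium-only (-100%), curves Hill-fitted.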
3T3 cytotox: Cytotoxic Profiling in NIH 3T3 Cell Line of Diverse Libraries Using Quantitative High-Throughput Screening; NIH 3T3 viability, CellTiter-Glo ATP luminescence, 48-72 h; Potency, µM (doses to about 96.7 µM), inactives show at the highest dose activity change, negative = cytotoxicity, actives largely listed as inhibitors; 4.3% of 94,000 active; AID 1345082, 2018; also: nearly all actives have a fitted effect of over 55% in size
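ATP-dependent luminescence (CellTiter-Glo) served as the viability signal for NIH 3T3 cells treated with compound for 48 or 72 hr at 37 °C.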
HEK293 tox: Cytotoxic Profiling in HEK 293 Cell Line of Diverse Libraries Using Quantitative High-Throughput Screening; HEK 293 viability, ATP luminescence (CellTiter-Glo), 48-72 h; Potency, µM (titrated, usually from 115 µM), without a hit: at the highest dose activity change, negative = cytotoxicity, actives largely listed as inhibitors; 6.6% of 94,000 active; AID 1345083, 2018; also: nearly all actives have a fitted effect of over 60% in size
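HEK 293 cells at 250 cells/well were exposed to compounds by pintool transfer for 48 or 72 hr at 37 degree Celsius, 5% CO2. Viability was read as ATP-coupled luminescence with CellTiter-Glo after 10 min at room temperature.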
SNCA expr inhib: Primary qHTS assay for inhibitors of alpha-synuclein gene (SNCA) expression. 0.17% of 140,000 active. AID 1671194, 2021. HEK-293 SNCA-luciferase knock-in, luminescence, 24 h. Potency, µM (doses to about 57.2 µM), for the others: at the highest dose activity change, negative = inhibition, most hits filed as inhibitors;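 also: plate controls were DMSO cells for no effect and cell-free wells for full effect; nearly all actives have a fitted effect of over 45% in size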
An asterisk follows results filed as active; i = inactive; ? = inconclusive; · = no result given; & = joins results of further samples; [ ] = remark or other dose. Calls follow the shape of the dose curve; as a rule, active = well fitted curve in the direction sought with a large enough effect; inconclusive = small, poorly fitted or top-dose-only effect, or another doubt; inactive = no such curve, though single readings can be large; an effect the other way counts as inactive or inconclusive. Unless noted, % is scaled to controls: 0 for no effect and ±100 for the full control effect; potency is read from the fitted curve at half-maximal effect. Some of the compounds tested; count on the stated rates, not on these rows.

cpd | compound | GPT2 inhibitor | FLuc inh | HEK293 tox
1 | Cc1nn(C)c2c1c(C(F)(F)F)cc(=O)n2C(C)C(=O)NCCc1ccc(Cl)cc1 (stereo not given) | · | · | ·
2 | CC(C)Cn1cc(NC(=O)NCc2ccccc2Cl)c2ccccc2c1=O | · | · | ·
3 | Cn1nccc1CN1CC2(C1)C(=O)Nc1ccccc12 | i | · | ?
4 | O=C1Nc2ccccc2C12CN(Cc1ccc3ccccc3c1)C2 | -17% | · | ?
5 | O=C(Nc1cccc(C(F)(F)F)c1)c1cc2nc(-c3ccccc3)cc(C(F)(F)F)n2n1 | · | · | ·
6 | CN(C)c1cccc(-c2cnc(NC(=O)C3CCOCC3)c3c2CCO3)c1 | i | -21%[172 µM] | ?
7 | Cc1cccc(C)c1NC(=O)CCSc1nc(-c2ccc3c(c2)OCO3)cc(C(F)(F)F)n1 | · | · | ·
8 | Cn1nc(-c2ccccc2F)c2cc(C(=O)Nc3cc(F)ccc3F)sc21 | · | · | ·

cpd | SNCA expr inhib | SNCA viab count | 3T3 cytotox
1 | -5% | 6% | ·
2 | -11% | 1% | ·
3 | -2%[87.6 µM] | 3%[87.6 µM] | -15%[138 µM]
4 | 7% | -12% | -25%
5 | 8% | -11% | ·
6 | 11%[87.6 µM] | -6%[87.6 µM] | -28%[138 µM]
7 | 3% | 8% | ·
8 | 9% | 6% | ·

The final 2 records of the part before are carried over, then new ones follow:
cpd | compound | GPT2 inhibitor | FLuc inh | HEK293 tox
7 | Cc1cccc(C)c1NC(=O)CCSc1nc(-c2ccc3c(c2)OCO3)cc(C(F)(F)F)n1 | · | · | ·
8 | Cn1nc(-c2ccccc2F)c2cc(C(=O)Nc3cc(F)ccc3F)sc21 | · | · | ·
9 | CC(C)NC(=O)c1nc(-c2ccc(Cl)nc2)c2cnccn12 | -4% | · | -14%
10 | COC(=O)c1ccccc1NC(=O)C1=CC(c2ccc(C)cc2)=NS(=O)(=O)N1C | · | · | ·
11 | Cc1ccc(CNC(=O)Nc2cn(CC(C)C)c(=O)c3ccccc23)cc1 | · | · | ·
12 | Cc1cnc(C2CC2)n1CCNC(=O)CN1CCOCC1 | i | 8% | 0%
13 | O=C1c2ccccc2CN1C1CCN([S+](=O)([O-])c2cccs2)CC1 | i | · | -11%
14 | COc1ccc(CNC(=O)C(=O)Nc2c3c(nn2-c2ccccc2)CSC3)cc1 | · | · | ·
15 | Cc1ccc(C(=O)N2CCC3(CC2)C(=O)Nc2ccccc23)cc1 | 1% | · | -15%
16 | COc1ccc(-c2cc(C(F)(F)F)nc(NCCc3ccccc3)n2)cc1OC | · | · | ·

cpd | SNCA expr inhib | SNCA viab count | 3T3 cytotox
7 | 3% | 8% | ·
8 | 9% | 6% | ·
9 | 147%[activator] | 16% | -27%
10 | -11% | -1% | ·
11 | 3% | 4% | ·
12 | -18% | -3% | -7%
13 | -25% | 5% | -15%
14 | ? | 2% | ·
15 | -24% | 1% | -3%
16 | 19% | 10% | ·

Another view of part of the listing above:
no.	SMILES	GPT2 inhibitor	FLuc inh	HEK293 tox	SNCA expr inhib	SNCA viab count	3T3 cytotox
6	CN(C)c1cccc(-c2cnc(NC(=O)C3CCOCC3)c3c2CCO3)c1	i	-21%[172 µM]	?	11%[87.6 µM]	-6%[87.6 µM]	-28%[138 µM]
7	Cc1cccc(C)c1NC(=O)CCSc1nc(-c2ccc3c(c2)OCO3)cc(C(F)(F)F)n1	·	·	·	3%	8%	·
8	Cn1nc(-c2ccccc2F)c2cc(C(=O)Nc3cc(F)ccc3F)sc21	·	·	·	9%	6%	·
9	CC(C)NC(=O)c1nc(-c2ccc(Cl)nc2)c2cnccn12	-4%	·	-14%	147%[activator]	16%	-27%
10	COC(=O)c1ccccc1NC(=O)C1=CC(c2ccc(C)cc2)=NS(=O)(=O)N1C	·	·	·	-11%	-1%	·
11	Cc1ccc(CNC(=O)Nc2cn(CC(C)C)c(=O)c3ccccc23)cc1	·	·	·	3%	4%	·
12	Cc1cnc(C2CC2)n1CCNC(=O)CN1CCOCC1	i	8%	0%	-18%	-3%	-7%
13	O=C1c2ccccc2CN1C1CCN([S+](=O)([O-])c2cccs2)CC1	i	·	-11%	-25%	5%	-15%
14	COc1ccc(CNC(=O)C(=O)Nc2c3c(nn2-c2ccccc2)CSC3)cc1	·	·	·	?	2%	·
15	Cc1ccc(C(=O)N2CCC3(CC2)C(=O)Nc2ccccc23)cc1	1%	·	-15%	-24%	1%	-3%
16	COc1ccc(-c2cc(C(F)(F)F)nc(NCCc3ccccc3)n2)cc1OC	·	·	·	19%	10%	·

(cont.)
cpd | compound | GPT2 inhibitor | FLuc inh | HEK293 tox
17 | CCc1ccc(NC(=O)c2sc(-n3nc(C)c(CCC(C)C)c3C)nc2C)cc1 | · | · | ·
18 | O=C(N[C@H]1C[C@@H](CO)N(Cc2ccco2)C1)c1cccnc1 | -5% | -6% | ?
19 | COc1ccccc1C(=O)NC1(C(F)(F)F)C(=O)Nc2c1c(=O)[nH]c(=O)n2-c1ccccc1 (stereo not given) | · | · | ·
20 | Cc1cc2oc(=O)c(CC(=O)NCCc3ccccc3F)c(C)c2c2occ(C(C)(C)C)c12 | · | · | ·
21 | Cc1nn(C)c2c1c(C(F)(F)F)cc(=O)n2C(C)C(=O)NCc1ccccc1 (stereo not given) | · | · | ·
22 | CC(C)Oc1cccc(C(=O)Nc2ccc(-c3nc4cc(Cl)cc(Cl)c4o3)cc2)c1 | · | · | ·
23 | CCOC(=O)c1c(NC(=O)CCCOc2ccc(C)cc2)sc2c1CCC(C)C2 (stereo not given) | · | · | ·
24 | COCCN(CCOC)C(=O)c1cc2c(=O)n3ccccc3nc2n1C | · | · | ·

cpd | SNCA expr inhib | SNCA viab count | 3T3 cytotox
17 | 41%[activator] | 9% | ·
18 | 0% | -3% | i
19 | 4% | 0% | ·
20 | 34% | -19% | ·
21 | 29% | 14% | ·
22 | -9% | -2% | ·
23 | -15% | 3% | ·
24 | -10% | ? | ·

The results go on:
cpd | compound | GPT2 inhibitor | FLuc inh | HEK293 tox
25 | COc1ccc(-c2[nH]nc3ncc(-c4cccnc4)nc23)c(C)c1 | 2%[88.5 µM] | -9%[172 µM] | ?
26 | O=C(c1ccc(Cl)cc1)N1CCC(n2c(=O)[nH]c3ccccc32)CC1 | -13% | · | i
27 | COCCNc1ncc(-c2ccccc2)c2c1OCC2 | i | 28µM* | ?
28 | Cc1cnc(C2CC2)n1CCNC(=O)CC1CCCC1 | -36% | · | -1%
29 | CCN(CC)CC(=O)Nc1c(C)cccc1C | -7%&4% | · | ·
30 | COc1ccc(NC(=O)N2CCCCC2c2nc(C3CC3)n[nH]2)cc1 (stereo not given) | -29% | -1% | 6%
31 | CCNc1ncc(-c2nc3cc(S(=O)(=O)NC(C)C)ccc3n2C(C)C)cn1 | -2%[11.5 µM] | -3% | -3%
32 | Cc1cnc(C2CC2)n1CCNC(=O)C(C)C | i | 9% | 1%
33 | CC1=C(C(=O)Nc2cccnc2)C(c2ccccc2)n2nc(SCc3ccccc3)nc2N1 (stereo not given) | · | · | ·
34 | O=C(Nc1ccc2c(c1)CCCN2C(=O)c1cccs1)c1c(F)cccc1F | · | · | ·

cpd | SNCA expr inhib | SNCA viab count | 3T3 cytotox
25 | -16%[87.6 µM] | -20%[87.6 µM] | 28µM*
26 | 8% | 3% | i
27 | 84%[activator][87.6 µM] | -14%[87.6 µM] | ?
28 | -9% | ? | -20%
29 | -5% | ? | ·
30 | 2% | 3% | i
31 | 8% | -4% | -4%
32 | -18% | -4% | 3%
33 | 3% | 0% | ·
34 | 54%[activator] | -27% | ·

Source: PubChem
